Beta cell apopt – inhibitors of cytokine-induced beta cell apoptosis, primary screen, luminescence; INS-1E cytokine-induced death, ATP luminescence, 48 h; percent of positive-control rescue, neutral wells zero; protection from apoptosis, % (test concentration not listed); 300,000 tested, 0.8% active; AID 435005, 2010;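 active = all replicates at 75% or more, or half of them and the mean; inconclusive = half reach 75% but not the mean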;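 also: 0% = cytokine-treated negative control wells and 100% = positive control rescue; higher means more ATP so stronger rescue from cytokine killing; wells of about 40 µL received 100 nL stock; the first replicate is given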
Calb FLC – C. albicans growth inhibition with fluconazole, primary screen, CaCi-2 strain, Alamar Blue fluorescence; 300,000 tested, 0.57% active; growth inhibition, % (concentration not given with the values); C. albicans CaCi-2 (fluconazole-resistant clinical isolate) + fluconazole, 48 h;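 active = most replicates above 75%; inconclusive = exactly half above 75%; inactive = most below 75%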;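 also: all wells also contain fluconazole at 8 µg/ml as a sub-toxic cotreatment; 0% = median of DMSO wells and 100% = median of geldanamycin control wells; wells of about 8 µL received 7.5 nL stock; the first replicate is given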
MLL AF4-AF9 inh – inhibitors of AF4 peptide binding to AF9, primary screen, biochemical, AlphaScreen, biotin-AF4 peptide, FLAG-AF9, single point; Protein AF-9 (Homo sapiens), P42568; inhibition, % at 10 µM; AID 651704, 2012; 350,000 tested, 0.47% active;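 active = every replicate reaching a set inhibition limit, whatever the replicate mean, cut at about 25% in these data; inconclusive = mean inhibition reaches that limit but some replicates miss it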;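 also: 0% = plate neutral control median and 100% = total signal loss; the record names both 10 and 1 µM as test concentration; the first replicate is given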
Target sequence (P42568 whole entry, looked up): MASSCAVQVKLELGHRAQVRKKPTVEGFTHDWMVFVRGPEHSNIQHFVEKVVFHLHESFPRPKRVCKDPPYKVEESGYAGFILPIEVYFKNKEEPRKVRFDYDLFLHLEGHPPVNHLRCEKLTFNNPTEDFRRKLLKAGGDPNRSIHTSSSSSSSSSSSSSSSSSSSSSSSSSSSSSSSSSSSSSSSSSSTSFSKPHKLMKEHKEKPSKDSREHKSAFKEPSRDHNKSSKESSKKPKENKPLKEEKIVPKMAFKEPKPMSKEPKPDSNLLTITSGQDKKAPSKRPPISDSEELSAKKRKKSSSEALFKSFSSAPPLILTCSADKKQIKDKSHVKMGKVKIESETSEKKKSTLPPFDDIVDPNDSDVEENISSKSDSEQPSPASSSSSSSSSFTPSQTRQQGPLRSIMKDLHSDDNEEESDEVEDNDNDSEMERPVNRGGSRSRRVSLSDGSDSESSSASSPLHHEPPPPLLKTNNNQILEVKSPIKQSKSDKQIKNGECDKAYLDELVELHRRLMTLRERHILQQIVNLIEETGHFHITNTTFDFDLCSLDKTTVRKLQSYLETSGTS
rRNA inh HTS – reduced GFP signal of wild-type E. coli, primary screen, bacterial rRNA inhibitor project, GFP/RFP fluorescence, OD600, single point. E. coli WT GFP vs humanized-ribosome RFP mutants, 24 h; active compounds read low; DMSO median 0, no signal -100. GFP signal change (wild-type ribosome), % (concentration not given with the values). 350,000 tested, 1.6% active. AID 720706, 2013;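 active = significant combined selectivity score with lowered wild-type GFP, culture density cut under 30%, mutant RFP and density less affected; inactive = any of these conditions unmet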; also: one replicate is shown; some compounds called inactive have numbers as strong as hits
RanGTP-Imp inh – inhibitors of RanGTP-importin-beta interaction, primary screen, biochemical, FRET, CFP-Ran, YFP-importin-beta, homogeneous. 300,000 tested, 1.1% active. cell-free CFP-Ran/YFP-importin-beta FRET ratio. inhibition, % (concentration not given with the values);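 active = most replicates above 15%; inconclusive = exactly half above 15%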;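 also: 0% = DMSO wells and 100% = Ran loaded with GDP instead of GTP; wells of about 40 µL received 100 nL stock; the first replicate is given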
T cruzi inh – inhibitors of intracellular T. cruzi growth, primary screen, luminescence, NIH3T3 host cells; T. cruzi beta-gal in NIH3T3, 90 h; inhibition, % (no concentration beside the values); 300,000 tested, 1.4% active; AID 1885, 2009;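 active = mean inhibition across valid replicates above about 55%, limit read from the data; inconclusive = mean below that limit but half or more replicates reach it; inactive = mean below it, under half of replicates reach it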;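 also: signal also drops with host cell toxicity which is not excluded here; 0% = plate median of DMSO wells and 100% = zero luminescence signal; higher percent means less beta-gal luminescence so fewer parasites; stock transfer was 50 nL into about 50 µL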
ALR inh – inhibitors of human ALR sulfhydryl oxidase, primary screen, biochemical, H2O2 detection, HRP-luminol luminescence, single point; FAD-linked sulfhydryl oxidase ALR (Homo sapiens), P55789; purified ALR, DTT oxidation; inhibition, % (test concentration not listed); 290,000 tested, 3.8% active; AID 485317, 2010;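 active = mean and each replicate at 75% or more; inconclusive = only one of the two met; inactive = neither met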;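 also: stock transfer was 7.5 nL into about 7.5 µL; 0% = neutral wells and 100% = wells with inactivated enzyme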
Target sequence (P55789 whole entry, looked up): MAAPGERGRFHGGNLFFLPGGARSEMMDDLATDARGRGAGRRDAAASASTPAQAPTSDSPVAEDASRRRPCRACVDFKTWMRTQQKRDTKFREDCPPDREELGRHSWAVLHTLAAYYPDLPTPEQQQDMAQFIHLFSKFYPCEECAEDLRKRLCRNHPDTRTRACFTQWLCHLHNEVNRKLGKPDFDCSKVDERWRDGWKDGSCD
FGF22 binding – binders of human FGF22 protein, primary screen, FGF22 synaptogenesis inhibitor project, biophysical, thermal shift, single point; Fibroblast growth factor 22 (Homo sapiens), Q9HCT0; recombinant FGF22 thermal shift, SYPRO orange fluorescence; percent of sucrose octasulfate shift, DMSO zero; calls only at 9.99 µM; 340,000 tested, 1.5% active; AID 651658, 2012;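 active = melting point raised past a set limit in the mean and every replicate; inconclusive = no clear call; three in four hits are not shown here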
Target sequence (Q9HCT0 whole entry, looked up): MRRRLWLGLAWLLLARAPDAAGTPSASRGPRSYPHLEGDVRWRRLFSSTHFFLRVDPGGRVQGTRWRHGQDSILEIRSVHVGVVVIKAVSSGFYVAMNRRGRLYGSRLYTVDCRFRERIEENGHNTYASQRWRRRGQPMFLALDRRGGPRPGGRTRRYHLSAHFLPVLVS
rRNA inh HTS OD600 – second read-out of rRNA inh HTS, no call of its own (marks repeat the call); OD600 change, %; measured here: OD600 growth;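 optical density of the mix in the first replicate; 0 = DMSO median and -100 = no signal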
rRNA inh HTS RFP – recorded beside rRNA inh HTS, whose call it bears; RFP signal change, %; measured here: RFP humanized mutant strains;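 first replicate; 0 = DMSO median and -100 = no signal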
* marks the source's active call; other numbers are inactive results; i = inactive; ? = inconclusive; . = no result given. These rows are one share of the data; count on the stated rates, not on these rows.

SMILES	Beta cell apopt	Calb FLC	MLL AF4-AF9 inh	rRNA inh HTS	rRNA inh HTS OD600	rRNA inh HTS RFP	RanGTP-Imp inh	T cruzi inh	ALR inh	FGF22 binding
CCOC(=O)c1c(/N=C/C2=C(O)CCCC2=O)sc2c1CCCC2	.	8.4	3.6	6.7	7.3	3.9	0.5	-2.5	.	i
O=[N+]([O-])c1ccc(N/N=C/C=C/c2ccco2)cc1	.	-0.9	0.2	-39.9*	3.3*	-7.5*	5.0	.	42.9	i
Fc1ccc(CN2CCN(c3ncccn3)CC2)c(F)c1	4.2	7.2	-8.3	3.6	7.5	1.2	3.7	-4.2	-5.5	i
O=C(c1ccc(Cl)c(S(=O)(=O)NCc2ccco2)c1)N1CCN(c2ccccc2F)CC1	-5.6	-0.7	.	.	.	.	3.3	4.7	0.0	.
CN(C)C(=O)NC(Nc1cccc([N+](=O)[O-])c1)C(Cl)(Cl)Cl (stereo not given)	-3.0	-15.5	3.8	6.5	-1.0	1.8	1.4	-3.8	.	i
O=[N+]([O-])c1ccc(C2=Nn3cnnc3SC2)cc1	.	6.7	.	8.2	11.2	-2.9	-4.2	-6.2	.	i
COc1cccc(/C=C2/SC(=S)N(CC(=O)NC3C=CS(=O)(=O)C3)C2=O)c1 (stereo not given)	-13.3	.	-1.0	20.9	23.1	4.9	-0.6	-1.1	-8.1	i
CCOC(=O)N1CCN(S(=O)(=O)c2ccc(-n3cnnn3)cc2)CC1	-5.9	-12.8	-1.0	9.3	12.1	4.2	4.0	0.6	-7.4	i
CCOc1cc2c3c(c1)C(C)=CC(C)(C)N3C(=O)C2=O	18.3	-3.5	15.5	4.3	1.5	-4.2	0.3	14.1	0.7	i
O=C(c1ccc(NS(=O)(=O)c2ccc3[nH]c(=O)[nH]c3c2)cc1)N1CCCC(C(F)(F)F)C1 (stereo not given)	-1.2	-2.9	-0.8	8.0	3.3	-0.9	-0.3	-3.0	-6.1	.
CCN1CCN(c2nc3c(c(=O)[nH]c(=O)n3C)n2Cc2ccccc2F)CC1	.	-2.1	0.1	9.8	15.7	-3.0	10.1	-12.4	-0.8	i
CCSc1ccccc1C(=O)Nc1ccc([N+](=O)[O-])cc1OC	3.0	-6.8	-11.8	-3.6	-10.7	-8.3	0.4	-1.1	.	i
COc1ccccc1CN(C)C(C)C(=O)Nc1cccc(C(C)=O)c1 (stereo not given)	0.7	6.1	1.3	-7.9	-7.8	-1.4	-0.6	13.0	.	.
O=C(Nc1ccn(Cc2ccccc2F)n1)c1ccc(COc2ccc(Cl)cc2Cl)o1	-0.1	-16.9	.	.	.	.	1.2	34.8	-9.1	.
Cc1ccc(S(=O)(=O)N2CCC(C(=O)Nc3nnc(-c4ccco4)s3)CC2)cc1	-2.1	-6.7	3.2	-0.4	-0.6	-0.8	-4.2	-7.4	2.2	i
Cc1ccc(C)c(S(=O)(=O)N2CCCC2CNC(=O)C(=O)NCCN2CCOCC2)c1 (stereo not given)	-3.8	4.5	13.1	8.2	12.2	-2.2	0.5	-11.5	-3.6	i
Cc1cc(C)cc(N2C(=O)C3C4C=CC(C4)C3C2=O)c1 (stereo not given)	0.3	2.8	.	.	.	.	2.2	3.7	-1.6	.
O=C(c1cc2nc(-c3ccco3)cc(C(F)(F)F)n2n1)N1CCN(c2ccccc2)CC1	-3.9	1.7	-14.8	-2.2	-4.5	-1.2	0.0	5.3	5.0	i
N#Cc1ccsc1NC(=O)COC(=O)C1=NNC(=O)CC1	0.8	.	-0.7	14.9	2.9	2.2	.	.	2.2	i
Nc1c(C(=O)N2CCOCC2)oc2ccccc12	-6.1	-0.4	-2.0	3.4	10.2	-0.2	-1.6	-2.9	-1.3	i
Clc1ccc(OCCCCN2CCc3ccccc3C2)cc1	0.8	.	-5.9	.	.	.	.	10.6	-7.5	i
CC1Cc2ccccc2N1C(=O)CCn1cccn1 (stereo not given)	-5.3	-12.3	0.4	9.6	15.4	2.4	-2.8	4.8	-12.9	i
O=[N+]([O-])c1cc(-c2nnc(-c3ccccc3)o2)ccc1Oc1ccc(Cl)cc1	5.4	-0.4	7.0	9.9	9.0	-3.4	-2.3	4.6	5.2	i
OCc1ncccc1O	5.1	8.5	-1.9	6.6	10.0	0.3	5.0	-10.7	4.2	i
Cc1ccc(S(=O)(=O)/N=C2\CN(C)C(=O)N2C)cc1	5.6	-4.3	0.0	4.9	4.7	-6.7	2.3	-9.5	-10.8	i
O=C(NCCOc1ccccc1)C(=O)NCC1CCCO1 (stereo not given)	0.5	-35.3	-1.8	6.0	-6.2	-14.4	-0.9	-4.8	1.5	i
O=C(Cn1nc(-c2ccccc2)c2ccccc2c1=O)Nc1ccc(F)cc1	-4.9	-17.9	2.2	.	.	.	2.9	-11.4	-2.2	i
Cc1ccc(NC(=O)CCC(=O)OCc2ccc(Br)cc2)cc1	-0.5	-10.3	.	.	.	.	-0.2	-4.6	-1.6	.
COc1ccc(-c2[nH]ncc2CNCc2cc(C)n(C)n2)c(F)c1	-2.0	-7.4	0.8	11.0	2.4	3.3	-2.1	-5.0	-5.2	i
CCOC(=O)c1cc(CC)sc1NC(=O)CC1SC(N)=NC1=O (stereo not given)	-2.2	6.6	-0.1	3.9	2.8	3.3	1.7	3.7	63.6	i
COc1ccc(NC(=O)NCc2ccc(Cl)cc2)cc1	0.4	-21.4	-0.9	13.8	16.0	2.4	.	.	-13.5	i
CC(c1ccccc1)n1cc(C(=O)NCc2cccnc2)nn1 (stereo not given)	2.1	-0.7	.	.	.	.	-0.8	-8.6	-15.7	.
CCC1C(=O)NCCN1C(=O)c1cccc(OC2CCN(S(=O)(=O)N(C)C)CC2)c1 (stereo not given)	-6.8	-3.3	-1.1	-27.2	-36.6	-8.0	0.2	-7.5	-7.9	i
Cn1cnnc1SCC(=O)NNC(=O)c1ccc([N+](=O)[O-])cc1	-0.9	.	3.7	14.2	15.8	3.5	.	.	-9.0	i
Cc1cc(-c2nn(-c3ccccc3F)cc2CN2CCN(c3ccncc3)CC2)c(C)s1	14.3	66.0	32.3*	-49.5	-77.6	-11.6	1.2	40.5	2.9	i
CNC(=O)COc1ccc(S(=O)(=O)Nc2ccc(C)cc2)cc1	-5.3	0.4	-6.2	5.7	10.2	-7.2	-6.5	-3.4	.	.
Cc1ccccc1C(=O)NNC(=O)Nc1ccccc1	0.9	5.1	0.5	9.3	13.9	-0.5	6.6	-8.0	2.7	i
CC[C@]12c3[nH]c4ccccc4c3CCN1C(=O)C(CC(=O)NC/C=C(\C)CCC=C(C)C)C[C@@H]2C(=O)N1CCN(C(=O)c2ccco2)CC1 (stereo not given in full)	-10.6	.	0.3	3.0	6.9	1.9	.	.	-3.6	i
CCN(C(=O)COC(=O)/C=C/c1ccco1)C1CCCCC1	-4.5	.	1.0	-4.7	1.9	3.6	.	.	45.4	i
CC(=O)Nc1nonc1NC(=O)CSc1ccccn1	-0.6	-14.7	.	.	.	.	-1.2	-23.7	1.5	.
Cc1ccc(S(=O)(=O)NCCc2ccccc2)cc1	0.7	-14.9	.	.	.	.	-1.2	3.9	-4.6	.
Cc1cc(C)c2[nH]c(=O)c(CN(CC3CCCO3)C(=S)NCc3ccco3)cc2c1 (stereo not given)	-17.7	-24.7	-7.6	4.5	-7.8	-1.2	-0.2	3.1	2.8	i
O=C(O)c1ccc(NC(=O)C(c2ccccc2)c2ccccc2)cc1	.	-10.0	1.1	-14.7	-4.8	-1.0	-7.4	-2.8	-7.0	i
CN(C)CCNC(=O)c1onc(CSc2ccc(F)c(F)c2)c1C(=O)NCCN(C)C	3.7	-9.3	9.1	26.8	18.2	7.4	-1.9	26.8	-1.7	i
COC(=O)C1=NN(N=O)C2(CC(=O)N(c3cc(C)cc(C)c3)C2=O)C1 (stereo not given)	-1.6	-7.2	.	.	.	.	0.1	-10.6	84.6*	.
CCN(CC)C(=O)CSc1nnc(-c2cccc(OC)c2)o1	0.7	?	.	.	.	.	-0.5	3.0	7.9	.
O=S(=O)(NCc1ccccn1)c1cc(Cl)ccc1Cl	-5.5	9.2	5.1	-5.6	2.5	-4.0	-1.5	-17.7	-2.9	i
O=C(O)C1CCCCC1C(=O)NCCCN1CCOCC1 (stereo not given)	-5.7	5.7	.	.	.	.	6.1	2.5	-9.4	.
COC(=O)CNc1nc(-c2ccccc2F)nc2ccccc12	-4.0	1.3	.	.	.	.	0.5	11.4	10.7	.
CCNc1ccc(Br)cc(C(=O)/C=C/c2c(Cl)cccc2Cl)c1=O	1.7	-7.7	.	.	.	.	-19.7	-0.1	-3.0	.

Going on with the list:
SMILES	Beta cell apopt	Calb FLC	MLL AF4-AF9 inh	rRNA inh HTS	rRNA inh HTS OD600	rRNA inh HTS RFP	RanGTP-Imp inh	T cruzi inh	ALR inh	FGF22 binding
O=S(=O)(c1ccc2c(c1)OCCO2)N1CCN(Cc2ccc3c(c2)OCO3)CC1	-0.9	-45.8	.	.	.	.	-2.3	13.1	-13.5	.
CCOCCCNC(=O)C(c1ccc(OC)cc1)N(Cc1cccs1)C(=O)c1ccccn1 (stereo not given)	-1.8	-15.8	-1.7	6.0	3.4	1.0	.	.	.	i
CCCCCCCCc1nc(=S)[nH][nH]1	-0.5	-5.1	.	.	.	.	-5.0	-4.4	?	.
Cc1ccc(NC(=O)NCc2ccccn2)cc1	-6.1	-2.8	.	.	.	.	4.4	-9.5	-2.4	.
C[C@H](NC(=O)c1ccco1)C(=O)Nc1ccc(C#N)cc1	-2.5	-0.3	-2.6	2.4	2.8	2.8	1.7	-3.5	.	i
COCc1cc(CN2CCN(CCc3ccccc3)C(CCO)C2)ccc1OC (stereo not given)	.	-2.6	-2.3	12.0	9.1	-0.6	-0.9	4.3	-0.9	i
O=C(O)CC(CC(=O)Nc1ccccc1C(=O)O)c1ccccc1 (stereo not given)	-17.5	-1.4	0.4	9.8	8.1	-1.2	-0.7	-3.5	-21.5	i
CSc1nc(O)c(/C=C2\C=Nc3ccccc32)[nH]1	0.2	-6.4	.	.	.	.	9.6	-3.3	61.4	.
COc1ccc(OC)c(-n2c(SCC(N)=O)nnc2-c2c[nH]c3ccccc23)c1	-5.9	9.8	-7.3	-7.4	-7.5	-1.1	1.4	-24.6	.	i
Cc1onc(-c2c(Cl)cccc2Cl)c1C(=O)ONC(=O)c1cc(C(F)(F)F)cc(C(F)(F)F)c1	0.4	8.9	-1.9	.	.	.	-3.1	-5.3	-8.3	i
